Autofluor counter: flagged as autofluorescent in microsphere protease counterscreen | compound autofluorescence counterscreen, microsphere flow cytometry; hits give high values | fluorescence intensity (test concentration not listed) | 3.1% of 360,000 active | AID 624483;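 active = at least 3 SD above the mean of all compounds, about 16000 in these data; inconclusive = too few beads counted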;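 also: 100 nL of 1 mM stock went into each well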
RN4220 kill: growth inhibition of S. aureus RN4220, primary screen, OD600; 16 h; inhibition, % (concentration not given with the values); 0.33% of 330,000 active; AID 1259311, 2017;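 active = z-score of -3 or lower and OD600 up to 0.18 on both plates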;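 also: plate controls were untreated cells for no effect and reference antibiotic for full effect; stock transfer was 100 nL into about 80 µL; one replicate is shown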
BJeLR viability: MLPCN primary cell-based screen for lethality selective to Ras in HRASV12 cells. 0.17% of 300,000 active. inhibition, % (test concentration not listed). BJeLR (HRASV12) viability, CellTiter-Glo ATP luminescence, 48 h; reference of the scale not given here;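 active = replicate mean above 50%; inconclusive = above 50% but judged a plate artefact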;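 also: 50 nL library stock added to about 25 µL; numbers are from one replicate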
Mtb hypoxia inh: PubChem AID 1159583 | fluorescence inhibition, % (concentration not given with the values) | 0.1% of 300,000 active | M. tuberculosis hypoxia-regulated fluorescent reporter, fluorescence;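 active = 35 to 45% if threefold the growth effect, above 45% if 1.5-fold the growth effect; inactive = the rest, general growth blockers included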;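 also: wells of about 50 µL received 100 nL stock; 0% = vehicle wells and 100% = reference inhibitor wells; whole bacteria with a GFP reporter of the hypoxia response; strong numbers were not always called active; many hits fall short of the cut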
ugtP null kill: growth inhibition of ugtP-null S. aureus, primary screen, RN4220 ugtP deletion, OD600; 16 h; some inactives read as strong as hits; growth inhibition, % (concentration not given with the values); 0.54% of 330,000 active; AID 1259309, 2017;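 active = z-score under -3 and OD600 up to 0.15 on both plates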;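 also: plate controls were untreated wells for no effect and antibiotic for full effect; wells of about 80 µL received 100 nL stock; the first replicate is given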
PrP 5UTR inh: inhibition of PrP 5' UTR reporter expression | cell-based PrP 5' UTR mRNA reporter, plate reader | inhibition, % (test concentration not listed) | 0.35% of 340,000 active | AID 488862, 2010;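 active = every replicate at 50% or more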;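 also: 0 = median of the neutral control wells; tested in H4 reporter cells; numbers are from one replicate; inactives centre near -14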
Mtb hypoxia inh growth: recorded beside Mtb hypoxia inh, whose call it bears; growth inhibition, %; measured here: M. tuberculosis growth (absorbance);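 0% = vehicle and 100% = reference antibiotic; read after six days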
The depositor's hits bear a star; u = inconclusive; x = no result given. Compounds were not picked by outcome. Share with any hit: about 4%.

SMILES | Autofluor counter | RN4220 kill | BJeLR viability | Mtb hypoxia inh | Mtb hypoxia inh growth | ugtP null kill | PrP 5UTR inh
CCOC(=O)C1CCCN(S(=O)(=O)c2nc3nc(C)cc(C)n3n2)C1 (configuration not stated) | 4403 | 6.1 | x | -12 | -9 | 12 | 14
O=C(Nc1nccs1)C1CC(=O)N(c2ccccc2Cl)C1 (configuration not stated) | 23519* | 8.5 | 5 | 16 | 3 | -1 | -25
CCNC(=S)N(CCc1c(C)[nH]c2ccc(C)cc12)Cc1cccs1 | 4335 | 16 | 5 | 1 | 19 | 2 | -24
Cc1ccccc1C(=O)Nc1ccc(C(=O)NN=Cc2ccc(F)cc2)cc1 | x | -2.5 | x | 5 | 6 | -6 | x
Cc1cc(C)nc(N/N=C/C2=C(O)CC(c3ccc(F)cc3)CC2=O)n1 (configuration not stated) | 6285 | 3.1 | 3 | 9 | -1 | -2 | x
CC1(c2ccc(Cl)cc2)NC(=O)N(CC(=O)N2CCCC2)C1=O (configuration not stated) | 10808 | 3.1 | -2 | 8 | 11 | 5 | -16
CC1CCCC(C)N1C(=O)c1cc(-c2ccco2)on1 (configuration not stated) | 4336 | 4.3 | -3 | 17 | 5 | -1 | -12
CCOC(=O)CC(=O)CSc1ccc2nnc(-c3cccc(F)c3)n2n1 | 16650* | 2.9 | -5 | 5 | 4 | 13 | -2
CC(C)n1c(SCC(=O)Nc2ccccc2)nc2c1c(=O)[nH]c(=O)n2C | 5971 | 3.0 | -1 | 10 | -2 | 9 | -17
O=C(CCn1nc(-c2ccc(Cl)cc2)ccc1=O)N1CCC2(CC1)OCCO2 | 3862 | -0.6 | -5 | 3 | 2 | 2 | -11
CCOC(=O)c1cccc(NC(=O)Cn2c(CC(=O)N3CCCC3)nc3ccccc32)c1 | x | 3.1 | 3 | 8 | 6 | 8 | x
CC(C)CNC(=O)c1cc2nc(C3CC3)cc(C(F)(F)F)n2n1 | 3223 | -1.3 | -11 | 2 | 3 | -2 | -15
Cc1ccc(OCC(=O)N2CCN(CC3CC4C=CC3C4)CC2)cc1 (configuration not stated) | 3173 | -12 | 3 | 19 | 14 | -9 | -16
COc1cc(-c2nnc(NC(=O)CCS(=O)(=O)c3ccc(F)cc3)o2)cc(OC)c1OC | u | x | -2 | x | x | x | -27
Cn1c(=O)c2c(nc(SCC(=O)c3cccs3)n2Cc2ccc(F)cc2)n(C)c1=O | 9172 | 0.7 | -1 | 5 | -2 | -2 | 3
CCOc1ccc(NC(=O)CN(C)C(=O)c2ccc(=O)[nH]c2)cc1OCC | 5866 | 1.7 | -5 | 0 | -10 | 8 | -11
CN(C)C(CNC(=O)c1cccc(S(=O)(=O)N2CCN(c3ccccc3)CC2)c1)c1ccccc1 (configuration not stated) | 3777 | -3.9 | x | 9 | 12 | 7 | -35
CCOc1ccc2oc(C(=O)OCC(=O)NC3CCCC3)c(C)c2c1 | 6945 | 1.0 | x | 12 | 26 | 14 | -25
Cc1ccc(Nc2ncnc(N)n2)cc1 | 3194 | 6.6 | 8 | 16 | 2 | 6 | -8
CC12CCC(C(=O)Nc3ccccc3Br)(C/C1=N\O)C2(C)C (configuration not stated) | 10454 | x | -1 | x | x | x | -6
CC(=O)Nc1ccc(S(=O)(=O)Nc2cc(S(=O)(=O)N3CCCCC3)ccc2O)cc1 | 7072 | 2.9 | x | 7 | -1 | 9 | -29
O=C(COc1ccc2c3c(c(=O)oc2c1)CCCC3)NCc1cccnc1 | 3420 | 1.9 | 8 | 10 | 15 | 0 | -10
O=c1[nH]c(=O)n(-c2ccccc2)c(O)c1N=Nc1ccc(Br)cc1 | 3227 | 9.9 | -4 | 12 | 13 | 8 | -23
O=C(Cc1ccc([N+](=O)[O-])cc1)N1N=C2CCCCC2C1(O)C(F)(F)F (configuration not stated) | 5994 | 7.1 | 5 | -3 | -8 | -4 | -8
Cc1ccc(NC(=S)NCC(C)CSc2ccc(Cl)cc2)cc1 (configuration not stated) | 4713 | 2.6 | -7 | 4 | 1 | 0 | -19
CCCc1c(C(=O)N/N=C/c2ccncc2)nnn1-c1nonc1N | 4007 | x | 20 | x | x | x | -37
COc1cc(NC(=O)C2CCN(c3cnccn3)CC2)cc(OC)c1OC | 5972 | -0.6 | -1 | 1 | 7 | 3 | -14
COc1ccccc1N1CCN(C(c2cccs2)C(C)NS(=O)(=O)c2ccccc2)CC1 (configuration not stated) | 4879 | 1.6 | -1 | 3 | 7 | 7 | -4
CC1CCN(C(=O)c2cc(S(=O)(=O)N3CCCCC3)c[nH]2)CC1 | 5182 | 9.4 | -7 | 2 | 3 | -5 | -11
Cc1nnc(SCC(=O)Nc2ccc(F)cc2F)n(N)c1=O | 5008 | 2.2 | -8 | 15 | 7 | 0 | -17
O=S(=O)(NCC1CCN(c2ccc(S(=O)(=O)N3CCOCC3)cc2)CC1)c1ccc(F)cc1 | 3784 | 1.9 | 3 | -7 | 7 | 8 | 3
O=C(COC(=O)Cc1ccsc1)Nc1cccc(F)c1 | 6434 | -0.2 | x | 4 | 3 | 2 | -7
CC1=NOC(=O)/C1=C/c1ccc(O)c(Br)c1 | 3359 | 3.8 | -4 | 4 | 4 | 6 | -16
COCCC(=O)NC12CC3CC(CC(C3)C1)C2 | 9771 | -0.8 | -1 | 9 | 0 | 3 | -17
CC(C)NS(=O)(=O)c1ccc(NC(=O)C(C)OC(=O)C2CCC2)cc1 (configuration not stated) | u | 5.6 | x | -9 | 3 | 4 | -12
CCn1c(=N)n(CC(=O)c2ccc(OC)c(OC)c2)c2ccccc21 | 10383 | -1.9 | -4 | -5 | 10 | -10 | 1
CC(=O)N1c2c(cc(Br)cc2S(=O)(=O)N2CCN(c3ccccc3F)CC2)CC1C (configuration not stated) | 3870 | 1.1 | 7 | 11 | -1 | 13 | -28
Cc1cc(C)n2c(SCc3ccc(Br)cc3)nnc2n1 | 5504 | 3.9 | -4 | 8 | 14 | 9 | x
CN(C)S(=O)(=O)c1ccc(S(=O)(=O)N(CC(=O)Nc2ccccc2)Cc2ccco2)cc1 | 2480 | 0.5 | -7 | x | x | 4 | -19
Cn1c(CCC(=O)OCC(=O)NCc2ccccc2Cl)nc(=O)c2ccccc21 | 4229 | 3.4 | 0 | 2 | 4 | 8 | -10

Exported in markdown: entries from further up.
| Structure | Autofluor counter | RN4220 kill | BJeLR viability | Mtb hypoxia inh | Mtb hypoxia inh growth | ugtP null kill | PrP 5UTR inh |
| --- | --- | --- | --- | --- | --- | --- | --- |
| CCOc1ccc(NC(=O)CN(C)C(=O)c2ccc(=O)[nH]c2)cc1OCC | 5866 | 1.7 | -5 | 0 | -10 | 8 | -11 |
| CN(C)C(CNC(=O)c1cccc(S(=O)(=O)N2CCN(c3ccccc3)CC2)c1)c1ccccc1 (configuration not stated) | 3777 | -3.9 | x | 9 | 12 | 7 | -35 |

New compounds follow.
SMILES | Autofluor counter | RN4220 kill | BJeLR viability | Mtb hypoxia inh | Mtb hypoxia inh growth | ugtP null kill | PrP 5UTR inh
CS(=O)(=O)Oc1ccc2c(c1)O/C(=C\C=C\c1ccccc1)C2=O | 3864 | x | 4 | x | x | x | -31
C=CCN1C2CCCC1CC(NC(=O)Nc1cc(C)cc(C)c1)C2 (configuration not stated) | 4165 | 5.0 | 4 | 13 | 5 | 18 | -17
COc1ccc(C(=O)NC(=O)COC(=O)c2ccc(C)o2)cc1 | 6258 | -3.7 | x | 0 | 12 | -4 | -17
CCC1=NN(C(=O)C(=O)NCCc2ccccc2)C(O)(C(F)(F)F)C1 (configuration not stated) | 10452 | 4.8 | -6 | 0 | 1 | 1 | -14
COc1ccc(N(CC(=O)O)S(=O)(=O)c2cccnc2)cc1 | 2663 | -4.4 | -5 | x | x | 8 | -32
O=C(COC(=O)c1cc(=O)[nH]c2ccccc12)Nc1ccc(F)cc1 | 3613 | -0.5 | x | 7 | 4 | 1 | -17
CCOC(=O)C1=C(C)N=c2s/c(=C3/C(=O)Nc4ccccc43)c(=O)n2C1c1ccc(C)cc1 (configuration not stated) | 2939 | x | 18 | x | x | x | -17
COc1ccccc1NS(=O)(=O)c1cc(NC(=O)c2sccc2C)ccc1N1CCOCC1 | 3548 | 0.0 | -7 | 14 | 3 | -1 | -2
CCOc1ccccc1OCCCOc1ccc(C)cc1Cl | 2627 | 21 | 4 | x | x | 16 | -30
COc1ccc(-c2noc(C3CCCN(C(=O)CCc4ccccc4)C3)n2)cc1 (configuration not stated) | 10763 | 2.8 | -11 | -4 | 5 | 11 | -13
COC(=O)c1cn(C(=O)/C=C/c2ccc(OC)c(OC)c2)c2ccccc12 | 4396 | -5.6 | -1 | -16 | 0 | -9 | -19
N#Cc1ccccc1OCc1cccc(S(=O)(=O)N2CCOCC2)c1 | 8348 | 6.8 | x | 7 | 1 | 10 | -21
COc1cc(-c2nc(S(=O)(=O)c3ccc(C)cc3)c(N(C)C)o2)cc(OC)c1OC | 3321 | 1.3 | -3 | x | x | 0 | -18
COc1ccccc1CNC(=O)CCC(=O)n1ncc2cc(C)ccc21 | 4069 | 2.9 | 7 | 2 | 1 | 3 | -21
COc1ccc(NS(=O)(=O)c2ccc3c(c2)CCC(=O)N3)c(OC)c1 | 16726* | 0.9 | -2 | -1 | -7 | 2 | -10
C/C=C/C(=O)N1c2ccccc2C(C)=CC1(C)C | 4660 | 7.8 | 10 | 16 | -6 | 4 | -5
Nc1ccc(C(=O)OCCCc2nc3cc4ccccc4cc3[nH]2)cc1 | 4386 | x | -21 | x | x | x | -22
COc1ccc(S(=O)(=O)N(C)c2ccc(C(=O)N3CCOCC3)cc2)cc1OC | 9520 | 1.0 | -2 | 16 | 9 | 2 | -1
NNC(=O)Cn1c(-c2nonc2N)nc2ccccc21 | 4375 | x | -1 | x | x | x | -25
C=CCNc1nc(N2CCCC2)nc2ccccc12 | 2131 | 1.0 | -2 | x | x | 1 | -4

Part of the list above, set out differently.
COC(=O)c1cn(C(=O)/C=C/c2ccc(OC)c(OC)c2)c2ccccc12
  Autofluor counter: 4396; RN4220 kill: -5.6; BJeLR viability: -1; Mtb hypoxia inh: -16; Mtb hypoxia inh growth: 0; ugtP null kill: -9; PrP 5UTR inh: -19
N#Cc1ccccc1OCc1cccc(S(=O)(=O)N2CCOCC2)c1
  Autofluor counter: 8348; RN4220 kill: 6.8; BJeLR viability: x; Mtb hypoxia inh: 7; Mtb hypoxia inh growth: 1; ugtP null kill: 10; PrP 5UTR inh: -21
COc1cc(-c2nc(S(=O)(=O)c3ccc(C)cc3)c(N(C)C)o2)cc(OC)c1OC
  Autofluor counter: 3321; RN4220 kill: 1.3; BJeLR viability: -3; Mtb hypoxia inh: x; Mtb hypoxia inh growth: x; ugtP null kill: 0; PrP 5UTR inh: -18
COc1ccccc1CNC(=O)CCC(=O)n1ncc2cc(C)ccc21
  Autofluor counter: 4069; RN4220 kill: 2.9; BJeLR viability: 7; Mtb hypoxia inh: 2; Mtb hypoxia inh growth: 1; ugtP null kill: 3; PrP 5UTR inh: -21

The listing continues:
SMILES | Autofluor counter | RN4220 kill | BJeLR viability | Mtb hypoxia inh | Mtb hypoxia inh growth | ugtP null kill | PrP 5UTR inh
c1n[nH]c(NCc2ccc3c(c2)OCO3)n1 | u | 1.8 | 5 | 11 | -1 | 6 | -41
Cc1nc2nc(Cc3ccccc3)[nH]n2c(=O)c1Cc1ccccc1 | 4953 | 3.0 | x | x | x | -2 | -12
CS(=O)(=O)c1ccc(-c2sc3ccccc3c2C(=O)NCCCN2CCOCC2)cc1 | 3992 | -0.4 | x | -4 | -4 | 3 | 25
COC(=O)C1=C(c2ccc(F)cc2OCc2ccccc2)CC2CCC1N2C(=O)NCc1ccc(C)cc1 (configuration not stated) | x | -10 | x | 11 | 11 | -3 | x
COc1ccc(NC(=O)C(=O)NNC(=O)c2ccc(Cl)cc2Cl)cc1 | 5483 | x | 14 | x | x | x | -16
CC(C)=C1C(=O)NN(c2ccc(F)c(Cl)c2)C1=O | 11366 | 0.7 | 1 | 2 | 4 | 2 | -18

Source: PubChem (several laboratories)
